PD-1 reverse act = reversal of PD-1 mediated T-cell inhibition | primary human CD4 T cells, PD-L1 beads, CellTiter-Glo 96 h | activation, % (no concentration beside the values) | 29,000 tested, under 10 active | AID 2316;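 active = replicate mean of 50% or more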;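 note: 0% = median vehicle wells and 100% = positive control; 100 nL library stock added to about 50 µL; numbers are from one replicate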
YB-1 expr inh = YB-1 expression inhibition | U2OS, qRT-PCR YB-1 vs CDIP delta delta Cp, 16 h; stronger effect = higher value; zero = DMSO, each unit about twofold | delta delta Cp (YB-1 minus CDIP) (test concentration not listed) | hit rate 0.37% among 30,000 | AID 434959;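 active = delta delta Cp rounded down to an integer at or above 3, about 3 SD of DMSO wells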;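 note: higher means less YB-1 transcript or more CDIP transcript relative to DMSO; stock transfer was 100 nL into about 100 µL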
Hedgehog inh = blocks Sonic Hedgehog signaling; inhibition, % (concentration not given with the values); AID 2313; Shh-LIGHT2 Gli-luciferase reporter, 30 h; hit rate 2.1% among 22,000;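 active = replicate mean of 65% or more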;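 note: pathway switched on by Shh-conditioned medium diluted 1 in 25 in low serum; 100 nL library stock added to about 40 µL; 0% = median of neutral wells and 100% = positive control level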
MITF inhib = blocks MITF activity; TRPM1 promoter luciferase, luminescence, 24 h; inhibition, % (concentration not given with the values); hit rate 0.28% among 37,000;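 active = most replicates at 85% or more, or half of them and the mean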;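 note: human melanocyte line stably carrying TRPM1 promoter luciferase reporter; 0% = vehicle wells and 100% = a positive control; the first replicate is given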
The depositor's hits bear a star; / = not tested or not shown. Some of the compounds tested; the hit share may differ from the screen's.

nr	Structure	PD-1 reverse act	YB-1 expr inh	Hedgehog inh	MITF inhib
1	C[C@H](CO)N1C[C@H](C)[C@@H](CN(C)S(C)(=O)=O)Oc2ccc(NC(=O)C3CC3)cc2C1=O	1.0	-0.16	10	-1
2	N#Cc1c(N)nc(Sc2ccc(Cl)cc2)c(C#N)c1-c1ccccc1	0.0	0.33	52	10
3	Cc1ccc(S(=O)(=O)Nc2cccc3c2O[C@@H](CN(C)S(=O)(=O)c2ccc(F)cc2)[C@H](C)CN([C@H](C)CO)C3=O)cc1	/	0.3	9	-19
4	COc1ccc(NC(=O)N(C)C[C@H]2Oc3c(NS(=O)(=O)c4ccc(Cl)cc4)cccc3C(=O)N([C@H](C)CO)C[C@@H]2C)cc1	2.1	0.012	34	9
5	C[C@@H]1CN([C@@H](C)CO)C(=O)Cc2cc(NC(=O)c3ccncc3)ccc2O[C@@H]1CN(C)S(=O)(=O)c1cccs1	0.9	0.15	21	-1
6	Cc1ccc(C(=O)O)cc1S(=O)(=O)NCCCO	0.7	/	/	-13
7	C[C@@H]1CN([C@@H](C)CO)C(=O)c2cc(NC(=O)CCC(F)(F)F)ccc2O[C@@H]1CN(C)C(=O)Nc1ccccc1	-0.4	-0.087	-5	-8
8	C[C@@H]1CN([C@@H](C)CO)C(=O)Cc2cc(NC(=O)Cn3cnnn3)ccc2O[C@@H]1CN(C)Cc1ccc(C(F)(F)F)cc1	1.2	-0.16	-24	-12
9	COc1ccc(NC(=O)Nc2cccc3c2O[C@H](CN(C)Cc2ccncc2)[C@H](C)CN([C@@H](C)CO)C3=O)cc1	0.3	0.32	1	-12
10	C[C@@H]1CN([C@@H](C)CO)C(=O)c2cccc(NC(=O)C3CCCCC3)c2O[C@@H]1CN(C)Cc1ccncc1	1.1	0.021	-63	-1
11	CCc1ccc(/C(C#N)=C/C=C/c2ccccc2)cc1	-0.8	-0.3	-148	-7
12	Cc1ccc(NC(=O)CSc2nnc(-c3ccc(Br)cc3)o2)cc1Cl	0.3	/	/	-17
13	Cc1ccc(S(=O)(=O)N(C)C[C@@H]2Oc3ccc(NS(=O)(=O)c4ccc(Cl)cc4)cc3CC(=O)N([C@H](C)CO)C[C@H]2C)cc1	/	-0.08	16	6
14	COc1cccc(C2CC(C(F)(F)F)n3nc(C(=O)Nc4cc(C)nn4-c4ccccc4)cc3N2)c1 (stereo not given)	-4.1	/	/	35
15	C[C@H]1CN([C@@H](C)CO)C(=O)c2cc(NC(=O)c3ccncc3)ccc2O[C@H]1CN(C)Cc1ccncc1	6.6	-0.14	/	-14
16	Cc1noc(C)c1NC(=O)N(C)C[C@H]1Oc2ccc(NC(=O)NC3CCCCC3)cc2CC(=O)N([C@H](C)CO)C[C@H]1C	4.0	-0.25	16	2
17	S=C(NCc1csc2ccccc12)NCC1CC1	-0.6	0.32	-21	23
18	CC(C)(C)c1ccc(S(=O)(=O)CC(O)CSc2nc3c(cc2C#N)CCCC3)cc1 (stereo not given)	1.2	/	/	-12
19	C[C@H]1CN([C@@H](C)CO)C(=O)c2cc(NC(=O)CCC(F)(F)F)ccc2O[C@H]1CN(C)S(=O)(=O)c1ccccc1	1.7	-0.14	-6	-19
20	C[C@H]1CN([C@@H](C)CO)C(=O)c2cc(NC(=O)Cc3cn(C)c4ccccc34)ccc2O[C@H]1CN(C)Cc1ccc(-c2ccccc2)cc1	-2.5	-0.3	/	26
21	CCC1(CC)C(=O)N(CC(=O)OC)C(=O)N(C)C1=S	0.4	0.52	/	-13
22	COc1ccc(CN(C)C[C@H]2Oc3ccc(NS(=O)(=O)c4ccc(F)cc4)cc3C(=O)N([C@H](C)CO)C[C@H]2C)cc1	0.3	0.27	21	-7
23	Cc1c(NC(=O)COc2cc(Cl)c(Cl)cc2Cl)cccc1-c1nc2ccccc2o1	1.6	/	/	-19
24	Cc1ccc(-n2ncc(C(=O)NCc3ccccn3)c2NC(=O)c2ccco2)cc1C	1.0	/	/	-12
25	C[C@H]1CN([C@@H](C)CO)C(=O)Cc2cc(NC(=O)Nc3ccccc3)ccc2O[C@H]1CN(C)C	/	-0.068	-10	-11
26	COc1ccc(NC(=O)C(C)N(c2ccc(Cl)cc2)S(C)(=O)=O)cc1OC (stereo not given)	1.0	/	/	-9
27	C[C@H]1CN([C@@H](C)CO)C(=O)c2cc(NC(=O)Nc3cccc4ccccc34)ccc2O[C@H]1CN(C)C(=O)Nc1ccc(F)cc1	-1.1	-0.039	-47	-17
28	C[C@@H]1CN([C@H](C)CO)C(=O)c2cccc(NC(=O)c3ccncc3)c2O[C@H]1CN(C)C(=O)NC1CCCCC1	1.0	0.4	-38	-4
29	Cc1noc(COc2ccccc2)c1C(=O)Sc1ccc(F)cc1F	-3.4	0.22	/	-2
30	O=C(CCSc1ccccc1)NC12CC3CC(CC(C3)C1)C2	-1.7	-0.11	43	45

Molecules from the list above that have a thiophene ring, fused or not:
nr	Structure	PD-1 reverse act	YB-1 expr inh	Hedgehog inh	MITF inhib
5	C[C@@H]1CN([C@@H](C)CO)C(=O)Cc2cc(NC(=O)c3ccncc3)ccc2O[C@@H]1CN(C)S(=O)(=O)c1cccs1	0.9	0.15	21	-1
17	S=C(NCc1csc2ccccc12)NCC1CC1	-0.6	0.32	-21	23

(listing goes on)
nr	Structure	PD-1 reverse act	YB-1 expr inh	Hedgehog inh	MITF inhib
31	C[C@H](CO)N1C[C@H](C)[C@@H](CN(C)Cc2ccc(Cl)c(Cl)c2)Oc2c(NC(=O)NC3CCCCC3)cccc2C1=O	-1.1	-0.19	26	24
32	C[C@H](CO)N1C[C@H](C)[C@H](CN(C)C)Oc2c(NC(=O)C3CC3)cccc2C1=O	0.0	-0.27	5	0
33	COc1ccc(NC(=O)N(C)C[C@H]2Oc3c(NC(=O)c4nc5ccccc5s4)cccc3C(=O)N([C@H](C)CO)C[C@H]2C)cc1	-0.6	-0.28	8	-11
34	CSc1cccc(NC(=O)CSc2nnnn2-c2ccccc2)c1	-0.6	/	/	6
35	C[C@H]1CN([C@@H](C)CO)C(=O)c2cc(NS(=O)(=O)c3ccc(F)cc3)ccc2O[C@@H]1CN(C)Cc1ccncc1	/	0.0015	/	-1
36	COc1ccc(NC(=O)Nc2ccc3c(c2)C(=O)N([C@@H](C)CO)C[C@@H](C)[C@@H](CN(C)C(=O)Nc2ccc(F)cc2)O3)cc1	-2.2	0.5	23	0
37	CC(C)NC(=O)N(C)C[C@@H]1Oc2c(NC(=O)C3CC3)cccc2C(=O)N([C@H](C)CO)C[C@H]1C	1.5	0.27	-21	5
38	C[C@@H]1CN([C@@H](C)CO)C(=O)c2cc(NC(=O)Nc3ccc(F)cc3)ccc2O[C@@H]1CN(C)Cc1ccc(Cl)c(Cl)c1	-0.4	0.13	85*	74
39	C[C@@H]1CN([C@H](C)CO)C(=O)Cc2cc(NS(=O)(=O)c3cn(C)cn3)ccc2O[C@H]1CN(C)C(=O)Nc1ccc2c(c1)OCO2	/	0.22	-14	0
40	O=C(Nc1ccccc1Cl)c1cc2ccccc2oc1=O	-0.1	0.0018	/	-39

The list goes on.
The line under a structure holds: PD-1 reverse act, YB-1 expr inh, Hedgehog inh, MITF inhib
[41] CCN(CC(=O)Nc1cccc(C(C)=O)c1)S(=O)(=O)c1ccc(C)cc1
    -0.9, /, /, -5
[42] CCN(CC(=O)Nc1cc(C(F)(F)F)ccc1Cl)S(=O)(=O)c1ccc(C)cc1
    0.8, /, /, 2
[43] CC(C)NC(=O)N(C)C[C@@H]1Oc2ccc(NC(=O)NC3CCCCC3)cc2C(=O)N([C@H](C)CO)C[C@H]1C
    -0.1, 0.14, -10, 1
[44] CNC[C@@H]1Oc2ccc(NS(=O)(=O)c3ccc(Cl)cc3)cc2C(=O)N([C@@H](C)CO)C[C@@H]1C
    1.1, 0.051, 12, -2
[45] COc1ccc(Nc2nc(N)nc(CSc3nc4cc(OC)ccc4s3)n2)cc1
    -0.3, /, /, -6
[46] C[C@@H]1CN([C@@H](C)CO)C(=O)c2cccc(NS(=O)(=O)c3cccs3)c2O[C@@H]1CN(C)S(C)(=O)=O
    1.8, -0.45, 4, 1
[47] Nc1ccc(Oc2ccccc2)cc1
    2.4, -0.09, /, -7
[48] Cc1ccc(S(=O)(=O)N(C)C[C@H]2Oc3ccc(NC(=O)Cc4cn(C)c5ccccc45)cc3C(=O)N([C@@H](C)CO)C[C@H]2C)cc1
    -2.6, -0.26, 8, 22
[49] O=C(Nc1sc2c(c1C(=O)NCc1ccco1)CCCC2)c1cccs1
    -2.3, /, /, -25
[50] C[C@@H]1CN([C@@H](C)CO)C(=O)Cc2cc(NC(=O)Cn3cnnn3)ccc2O[C@@H]1CN(C)S(C)(=O)=O
    /, -0.085, -13, 8
[51] Cc1ccc(NC(=O)CSc2nc3sc4c(c3c(=O)n2-c2ccccc2)CCCC4)c(C)c1
    -4.6, /, /, -3
[52] COC(=O)C(NC(=O)c1cccc(NC=O)c1O)C(C)O (stereo not given)
    -0.3, 0.24, -18, -7
[53] C=CCOc1ccc2ccccc2c1CNc1nn[nH]n1
    0.5, /, /, -2
[54] COc1ccc(S(=O)(=O)N(C)C[C@H]2Oc3c(NC(=O)c4nc5ccccc5s4)cccc3C(=O)N([C@@H](C)CO)C[C@H]2C)cc1
    /, 7.9*, -17, 1
[55] C[C@H](CO)N1C[C@H](C)[C@@H](CN(C)Cc2ccc(-c3ccccc3)cc2)Oc2ccc(NC(=O)c3ccncc3)cc2C1=O
    3.6, -0.15, /, -10
[56] C[C@H](CO)N1C[C@H](C)[C@@H](CN(C)Cc2ccc(C(=O)O)cc2)Oc2c(NC(=O)Nc3cccc4ccccc34)cccc2C1=O
    0.7, -0.74, -21, 15
[57] O=C1C(=O)N(Cc2ccc(Cl)c(Cl)c2)c2ccccc21
    -14, -0.29, 54, 1
[58] CCOC(=O)CS(=O)(=O)c1nc(-c2ccc(F)cc2)cc(C(F)(F)F)n1
    -16, /, /, 42
[59] C[C@@H]1CN([C@H](C)CO)C(=O)c2cccc(NC(=O)Nc3cccc4ccccc34)c2O[C@@H]1CN(C)S(=O)(=O)c1cccs1
    -2.0, 0.29, 39, 8
[60] CS(=O)(=O)N(CC(=O)Nc1ccccc1-c1ccccc1)c1cccc(C(F)(F)F)c1
    -0.8, /, /, -7
[61] COc1ccc(C)cc1S(=O)(=O)N1CCCC(C(=O)Nc2ccccc2F)C1 (stereo not given)
    -2.0, /, /, -4
[62] CCc1ccc(-n2c(SCC(=O)Nc3cccc(C)c3)nnc2-c2ccccc2)cc1
    -12, /, /, 63
[63] C[C@@H]1CN([C@@H](C)CO)C(=O)c2cc(NC(=O)Nc3ccc(F)cc3)ccc2O[C@@H]1CN(C)Cc1ccc(-c2ccccc2)cc1
    -1.3, 0.59, 18, 12
[64] Cc1ccc(NC(=O)CSC(=N)N)cc1
    2.9, -0.22, -11, 10
[65] CC(C)NC(=O)N(C)C[C@H]1Oc2c(NC(=O)c3ccc(-c4nccs4)cc3)cccc2C(=O)N([C@@H](C)CO)C[C@@H]1C
    0.6, -0.27, -14, 3
[66] C[C@@H]1CCCCO[C@@H](CN(C)C(=O)Nc2ccc(F)cc2)[C@@H](C)CN([C@H](C)CO)C(=O)c2cc(NC(=O)C3CCCCC3)ccc2O1
    -0.2, -0.089, /, 4
[67] COc1ccc(OC)c(NC(=O)COc2ccc3c4c(c(=O)oc3c2)CCCC4)c1
    1.5, /, /, -8
[68] O=C(CC1Sc2ccccc2NC1=O)Nc1ccccc1[N+](=O)[O-] (stereo not given)
    -1.4, /, /, 3
[69] C[C@@H]1CN([C@@H](C)CO)C(=O)c2cccc(NS(=O)(=O)c3ccc(F)cc3)c2O[C@H]1CN(C)C(=O)Nc1cccc2ccccc12
    1.8, 0.12, -11, 11
[70] CC(C)(C)c1cc2oc3c(c2c(C=NCc2ccncc2)c1O)CCCC3
    0.9, 0.26, 1, 3
[71] C[C@H]1CN([C@@H](C)CO)C(=O)c2cc(NC(=O)Cn3cnnn3)ccc2O[C@@H]1CN(C)Cc1ccncc1
    0.9, -0.17, /, -5

Four compounds picked at random from those above:
The line under a structure holds: PD-1 reverse act, YB-1 expr inh, Hedgehog inh, MITF inhib
[71] C[C@H]1CN([C@@H](C)CO)C(=O)c2cc(NC(=O)Cn3cnnn3)ccc2O[C@@H]1CN(C)Cc1ccncc1
    0.9, -0.17, /, -5
[70] CC(C)(C)c1cc2oc3c(c2c(C=NCc2ccncc2)c1O)CCCC3
    0.9, 0.26, 1, 3
[56] C[C@H](CO)N1C[C@H](C)[C@@H](CN(C)Cc2ccc(C(=O)O)cc2)Oc2c(NC(=O)Nc3cccc4ccccc34)cccc2C1=O
    0.7, -0.74, -21, 15
[68] O=C(CC1Sc2ccccc2NC1=O)Nc1ccccc1[N+](=O)[O-] (stereo not given)
    -1.4, /, /, 3
